Ran importin: RanGTP/importin-beta interaction disruptors – biochemical, CFP-Ran/YFP-importin-beta FRET, RCC1, cell-free, primary screen (AID 434961); CFP-Ran/YFP-importin-beta FRET, cell-free; active compounds read high; inhibition, %; 0.2% of 7,700 active;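 active = more than half of the replicate wells above 15% inhibition; inconclusive = exactly half above it; inactive = fewer than half above it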;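 note: 0% = DMSO wells and 100% inhibition = RanGDP control wells on each plate; stock of unstated strength diluted about 400-fold; mean of two wells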
* hit, by the source's call; ? = inconclusive. Only part of the results is shown; the hit share may differ from the screen's.

cpd | compound | Ran importin
1 | C[C@H](CO)N1C[C@H](C)[C@@H](CN(C)C(=O)NC2CCCCC2)Oc2c(NC(=O)Nc3ccc(C(F)(F)F)cc3)cccc2C1=O | -0.9
2 | C[C@H]1CN([C@@H](C)CO)C(=O)CCCn2cc(nn2)CO[C@@H]1CN(C)C(=O)C1CC1 | -1.2
3 | Cc1noc(C)c1NC(=O)N(C)C[C@H]1Oc2ccc(NC(=O)NC(C)C)cc2CC(=O)N([C@@H](C)CO)C[C@@H]1C | ?
4 | C[C@H](CO)N1C[C@H](C)[C@H](CN(C)C(=O)CCCN(C)C)OCCCC[C@H](C)Oc2ccc(NS(=O)(=O)c3cn(C)cn3)cc2C1=O | 3.2
5 | COc1ccc(S(=O)(=O)N(C)C[C@H]2Oc3ccc(NC(=O)Cc4ccccc4)cc3C(=O)N([C@H](C)CO)C[C@H]2C)cc1 | 3.2
6 | C[C@@H]1CN([C@H](C)CO)C(=O)Cc2cc(NC(=O)NC3CCCCC3)ccc2O[C@@H]1CN(C)Cc1ccccc1 | -0.2
7 | C[C@@H]1CN([C@H](C)CO)C(=O)c2cc(NC(=O)C3CC3)ccc2O[C@H]1CN(C)Cc1ccncc1 | 1.7
8 | C[C@@H]1CCCCO[C@@H](CN(C)C)[C@H](C)CN([C@H](C)CO)C(=O)c2cc(NC(=O)c3ccncc3)ccc2O1 | -2.7
9 | C[C@@H]1CCCCO[C@@H](CN(C)S(=O)(=O)c2cn(C)cn2)[C@H](C)CN([C@H](C)CO)C(=O)c2cc(NC(=O)c3ccccc3)ccc2O1 | -1.2
10 | C[C@H](CO)N1C[C@H](C)[C@H](CN(C)S(=O)(=O)c2cn(C)cn2)Oc2ccc(NC(=O)Cc3ccccc3)cc2CC1=O | 2.4
11 | C[C@@H]1CN([C@H](C)CO)C(=O)c2cccc(NC(=O)Nc3cccc4ccccc34)c2O[C@H]1CN(C)S(=O)(=O)c1ccc(Cl)cc1 | 0.4
12 | C[C@H](CO)N1C[C@H](C)[C@H](CN(C)C(=O)NC2CCCCC2)Oc2ccc(NC(=O)c3ccncc3)cc2C1=O | -3.1
13 | Cc1noc(C)c1S(=O)(=O)N(C)C[C@@H]1OCCCC[C@H](C)Oc2ccc(NC(=O)C3CCCCC3)cc2C(=O)N([C@@H](C)CO)C[C@@H]1C | -2.9
14 | C[C@H]1CN([C@@H](C)CO)C(=O)CCCn2cc(nn2)CO[C@H]1CN(C)C(=O)OCc1ccccc1 | -5.5
15 | C[C@@H]1CN([C@H](C)CO)C(=O)Cc2cc(NS(=O)(=O)c3ccccc3)ccc2O[C@H]1CN(C)Cc1ccc2c(c1)OCO2 | 1.9
16 | C[C@H]1CN([C@@H](C)CO)C(=O)c2cc(NC(=O)Nc3ccc(F)cc3)ccc2O[C@@H]1CN(C)S(=O)(=O)c1cn(C)cn1 | 0.5
17 | C[C@H](CO)N1C[C@H](C)[C@H](CN(C)S(=O)(=O)c2cn(C)cn2)OCCCC[C@H](C)Oc2ccc(N(C)C)cc2C1=O | -3.0
18 | C[C@H](CO)N1C[C@H](C)[C@@H](CN(C)C(=O)Nc2ccc(F)cc2)Oc2ccc(NS(=O)(=O)c3cccs3)cc2C1=O | -1.5
19 | Cc1cc(C(=O)Nc2cccc3c2O[C@@H](CN(C)Cc2ccc(C(F)(F)F)cc2)[C@H](C)CN([C@@H](C)CO)C3=O)n(C)n1 | 1.8
20 | Cc1noc(C)c1NC(=O)N(C)C[C@@H]1Oc2c(NC(=O)C3CCOCC3)cccc2C(=O)N([C@H](C)CO)C[C@@H]1C | -0.3
21 | C[C@@H]1CN([C@@H](C)CO)C(=O)c2cc(NC(=O)C3CC3)ccc2O[C@@H]1CN(C)Cc1ccncc1 | 1.2
22 | C[C@@H]1CN([C@H](C)CO)C(=O)c2cc(NS(=O)(=O)c3ccccc3)ccc2O[C@@H](C)CCCCO[C@@H]1CN(C)C(=O)C1CCCCC1 | 4.9
23 | CNC[C@H]1Oc2c(NS(=O)(=O)c3cn(C)cn3)cccc2C(=O)N([C@@H](C)CO)C[C@@H]1C | 0.8
24 | COc1ccc(NC(=O)N(C)C[C@H]2Oc3c(NS(=O)(=O)c4cccs4)cccc3C(=O)N([C@H](C)CO)C[C@@H]2C)cc1 | -4.9
25 | CNC[C@@H]1Oc2ccc(NC(=O)CCCN(C)C)cc2C(=O)N([C@@H](C)CO)C[C@@H]1C | 0.2
26 | CNC[C@H]1Oc2ccc(NC(=O)c3ccncc3)cc2CC(=O)N([C@@H](C)CO)C[C@@H]1C | 0.2
27 | C[C@H](CO)N1C[C@H](C)[C@H](CN(C)C(=O)C2CC2)OCc2cn(nn2)CCCC1=O | 3.3
28 | CNC[C@@H]1OCCCC[C@@H](C)Oc2ccc(NS(=O)(=O)c3ccccc3)cc2C(=O)N([C@H](C)CO)C[C@H]1C | -1.7
29 | C[C@@H]1CCCCO[C@H](CN(C)C(=O)CCC(F)(F)F)[C@H](C)CN([C@@H](C)CO)C(=O)c2cc(NC(=O)CCC(F)(F)F)ccc2O1 | -0.9
30 | C[C@H]1CN([C@@H](C)CO)C(=O)c2cccc(N(C)C)c2O[C@H]1CN(C)Cc1ccc(C(F)(F)F)cc1 | -4.2
31 | C[C@@H]1CN([C@H](C)CO)C(=O)Cc2cc(N(C)C)ccc2O[C@H]1CN(C)C(=O)Nc1ccccc1 | 3.5
32 | CC(C)NC(=O)Nc1ccc2c(c1)C(=O)N([C@@H](C)CO)C[C@@H](C)[C@@H](CN(C)S(=O)(=O)c1ccccc1)OCCCC[C@@H](C)O2 | 1.5
33 | C[C@H](CO)N1C[C@H](C)[C@@H](CN(C)S(=O)(=O)c2cccs2)Oc2ccc(NC(=O)Nc3ccc4c(c3)OCO4)cc2C1=O | -2.4
34 | C[C@@H]1CN([C@@H](C)CO)C(=O)c2cc(NS(=O)(=O)c3ccccc3)ccc2O[C@@H](C)CCCCO[C@H]1CN(C)Cc1ccncc1 | -2.2
35 | C[C@H](CO)N1C[C@H](C)[C@@H](CN(C)C(=O)Nc2ccc(F)cc2)Oc2ccc(NS(=O)(=O)c3ccc(Cl)cc3)cc2CC1=O | -1.6
36 | C[C@@H]1CN([C@@H](C)CO)C(=O)c2cccc(NC(=O)C3CCOCC3)c2O[C@H]1CN(C)Cc1ccncc1 | -1.2
37 | Cc1noc(C)c1NC(=O)Nc1ccc2c(c1)CC(=O)N([C@@H](C)CO)C[C@H](C)[C@H](CN(C)C(=O)Nc1cccc3ccccc13)O2 | -4.4
38 | C[C@H](CO)N1C[C@H](C)[C@H](CN(C)C(=O)NC2CCCCC2)Oc2c(NC(=O)NC3CCCCC3)cccc2C1=O | -0.7
39 | Cc1noc(C)c1S(=O)(=O)N(C)C[C@H]1Oc2ccc(NS(C)(=O)=O)cc2CC(=O)N([C@@H](C)CO)C[C@H]1C | 0.1
40 | C[C@H](CO)N1C[C@H](C)[C@@H](CN(C)Cc2ccc(C(=O)O)cc2)Oc2ccc(NC(=O)Cc3cn(C)c4ccccc34)cc2CC1=O | 6.1
41 | C[C@H](CO)N1C[C@H](C)[C@H](CN(C)C)Oc2ccc(NC(=O)C3CC3)cc2C1=O | 1.1
42 | C[C@H](CO)N1C[C@H](C)[C@H](CN(C)C(=O)Nc2ccc(F)cc2)Oc2ncc(C#CCN(C)C)cc2C1=O | -6.4
43 | C[C@H](CO)N1C[C@H](C)[C@@H](CN(C)C(=O)NC2CCCCC2)Oc2ccc(NS(=O)(=O)c3ccccc3)cc2C1=O | -6.3
44 | C[C@@H]1CN([C@@H](C)CO)C(=O)c2cccc(NS(=O)(=O)c3ccccc3)c2O[C@@H]1CN(C)C(=O)Nc1ccc(C(F)(F)F)cc1 | -1.5
45 | C[C@H]1CCCCO[C@H](CN(C)C(=O)CCC(F)(F)F)[C@@H](C)CN([C@@H](C)CO)C(=O)c2cc(NC(=O)CCC(F)(F)F)ccc2O1 | 4.3
46 | C[C@H]1CN([C@@H](C)CO)C(=O)c2cc(NC(=O)Cc3cn(C)c4ccccc34)ccc2O[C@H]1CN(C)C(=O)NC1CCCCC1 | 2.4
47 | COc1ccc(CN(C)C[C@H]2Oc3c(NS(=O)(=O)c4c(C)noc4C)cccc3C(=O)N([C@H](C)CO)C[C@H]2C)cc1 | -1.5
48 | CNC[C@@H]1Oc2ccc(NC(=O)Nc3c(C)noc3C)cc2CC(=O)N([C@H](C)CO)C[C@H]1C | -0.5
49 | Cc1noc(C)c1S(=O)(=O)Nc1ccc2c(c1)CC(=O)N([C@H](C)CO)C[C@@H](C)[C@H](CN(C)C(=O)NC(C)C)O2 | -4.7
50 | Cc1noc(C)c1S(=O)(=O)Nc1ccc2c(c1)C(=O)N([C@H](C)CO)C[C@@H](C)[C@H](CN(C)C(=O)NC1CCCCC1)O2 | -3.0
51 | C[C@H]1CN([C@@H](C)CO)C(=O)CCCn2cc(nn2)CO[C@H]1CN(C)C(=O)c1cc(-c2ccccc2)on1 | 0.7
52 | C[C@@H]1CN([C@H](C)CO)C(=O)c2cc(NC(=O)Cc3cn(C)c4ccccc34)ccc2O[C@@H]1CN(C)C(=O)NC1CCCCC1 | 0.0
53 | COc1ccc(CN(C)C[C@H]2Oc3ccc(NS(=O)(=O)c4ccc(Cl)cc4)cc3CC(=O)N([C@H](C)CO)C[C@H]2C)cc1 | 2.4
54 | CC(C)NC(=O)N(C)C[C@@H]1Oc2ncc(C#CCN(C)C)cc2C(=O)N([C@H](C)CO)C[C@@H]1C | -1.8
55 | C[C@@H]1CN([C@@H](C)CO)C(=O)c2cccc(NC(=O)NC3CCCCC3)c2O[C@H]1CN(C)C(=O)Nc1ccc2c(c1)OCO2 | 5.2
56 | COc1ccc(CN(C)C[C@H]2Oc3c(NS(=O)(=O)c4ccc(OC)cc4)cccc3C(=O)N([C@@H](C)CO)C[C@@H]2C)cc1 | -2.2

The listing continues:
cpd | compound | Ran importin
57 | C[C@H]1CN([C@@H](C)CO)C(=O)CCCn2cc(nn2)CO[C@H]1CN(C)C(=O)C1CC1 | -3.7
58 | CC(C)NC(=O)N(C)C[C@@H]1Oc2ccc(NC(=O)C3CC3)cc2C(=O)N([C@@H](C)CO)C[C@@H]1C | 0.3
59 | CC(C)NC(=O)N(C)C[C@H]1OCCCC[C@H](C)Oc2ccc(NC(=O)Cc3ccccc3)cc2C(=O)N([C@@H](C)CO)C[C@H]1C | 1.8
60 | C[C@H](CO)N1C[C@H](C)[C@H](CN(C)C(=O)Cc2ccccc2)OCCCC[C@H](C)Oc2ccc(NS(C)(=O)=O)cc2C1=O | -3.4
61 | CNC[C@@H]1Oc2ccc(NC(=O)CCC(F)(F)F)cc2C(=O)N([C@@H](C)CO)C[C@@H]1C | -2.6
62 | C[C@@H]1CN([C@H](C)CO)C(=O)c2cc(NS(=O)(=O)c3ccc(Cl)cc3)ccc2O[C@H]1CN(C)C(=O)Nc1ccc2c(c1)OCO2 | 1.9
63 | COc1ccc(S(=O)(=O)N(C)C[C@@H]2Oc3ccc(NC(=O)Cn4cnnn4)cc3C(=O)N([C@H](C)CO)C[C@H]2C)cc1 | 3.4
64 | C[C@@H]1CCCCO[C@H](CN(C)C(=O)Nc2cccc3ccccc23)[C@H](C)CN([C@H](C)CO)C(=O)c2cc(N(C)C)ccc2O1 | -2.0

Part of the list above in order of number of heavy atoms, low to high.
cpd | compound | Ran importin
57 | C[C@H]1CN([C@@H](C)CO)C(=O)CCCn2cc(nn2)CO[C@H]1CN(C)C(=O)C1CC1 | -3.7
61 | CNC[C@@H]1Oc2ccc(NC(=O)CCC(F)(F)F)cc2C(=O)N([C@@H](C)CO)C[C@@H]1C | -2.6
62 | C[C@@H]1CN([C@H](C)CO)C(=O)c2cc(NS(=O)(=O)c3ccc(Cl)cc3)ccc2O[C@H]1CN(C)C(=O)Nc1ccc2c(c1)OCO2 | 1.9

Random excerpt: two records from the list.
cpd | compound | Ran importin
58 | CC(C)NC(=O)N(C)C[C@@H]1Oc2ccc(NC(=O)C3CC3)cc2C(=O)N([C@@H](C)CO)C[C@@H]1C | 0.3
60 | C[C@H](CO)N1C[C@H](C)[C@H](CN(C)C(=O)Cc2ccccc2)OCCCC[C@H](C)Oc2ccc(NS(C)(=O)=O)cc2C1=O | -3.4

Other structures
cpd | compound | Ran importin
65 | C[C@@H]1CN([C@@H](C)CO)C(=O)Cc2cc(NC(=O)Nc3cccc4ccccc34)ccc2O[C@H]1CN(C)CC1CC1 | -3.0
66 | CNC[C@H]1Oc2c(NC(=O)c3ccncc3)cccc2C(=O)N([C@H](C)CO)C[C@H]1C | -1.6
67 | C[C@H](CO)N1C[C@H](C)[C@@H](CN(C)S(=O)(=O)c2cccs2)Oc2c(NC(=O)NC3CCCCC3)cccc2C1=O | -0.9
68 | C[C@@H]1CN([C@@H](C)CO)C(=O)c2cc(NS(=O)(=O)c3cccs3)ccc2O[C@@H](C)CCCCO[C@@H]1CN(C)C(=O)CCC(F)(F)F | 4.4
69 | C[C@@H]1CCCCO[C@@H](CN(C)C(=O)CCC(F)(F)F)[C@H](C)CN([C@@H](C)CO)C(=O)c2cc(NC(=O)CCC(F)(F)F)ccc2O1 | -2.0
70 | COc1ccc(S(=O)(=O)Nc2ccc3c(c2)CC(=O)N([C@H](C)CO)C[C@@H](C)[C@@H](CN(C)S(=O)(=O)c2ccc(OC)cc2)O3)cc1 | 6.8
71 | C[C@@H]1CCCCO[C@@H](CN(C)Cc2ccncc2)[C@H](C)CN([C@@H](C)CO)C(=O)c2cc(NS(=O)(=O)c3ccccc3)ccc2O1 | -14
72 | Cc1cc(C(=O)Nc2cccc3c2O[C@@H](CN(C)C(=O)Nc2ccccc2)[C@H](C)CN([C@H](C)CO)C3=O)n(C)n1 | 0.7
73 | CNC[C@H]1Oc2c(NC(=O)NC3CCCCC3)cccc2C(=O)N([C@H](C)CO)C[C@H]1C | ?
74 | C[C@@H]1CN([C@@H](C)CO)C(=O)Cc2cc(NC(=O)Cc3cn(C)c4ccccc34)ccc2O[C@@H]1CN(C)S(=O)(=O)c1cn(C)cn1 | -4.0
75 | C[C@@H]1CN([C@H](C)CO)C(=O)c2cccc(NC(=O)C3CCOCC3)c2O[C@@H]1CN(C)Cc1ccncc1 | 2.7
76 | Cc1noc(C)c1S(=O)(=O)Nc1ccc2c(c1)C(=O)N([C@H](C)CO)C[C@H](C)[C@H](CN(C)C(=O)NC(C)C)OCCCC[C@@H](C)O2 | 0.7

Screening data deposited in PubChem BioAssay by Broad Institute.
